Bioassay records from PubChem.
Sa helicase inh = S. aureus DNA helicase inhibition | purified S. aureus helicase, fluorescence unwinding assay; about half of the hits fall short of the stated cut | inhibition, %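 (tested at about 80 µM)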 | actives 0.05% (n = 120,000) | AID 485395;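 active = both duplicates at 50% or more, or one of them with a favoured structure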;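 also: 0% = mean of negative control wells and 100% = mean of positive control wells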
MgrA DNA FP = modulators of Staphylococcus aureus MgrA DNA binding | inhibition, %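 (about 10 µg/mL by stock and volumes)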 | actives 0.13% (n = 84,000) | fluorescence polarization;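 active = above 50% in either of two replicates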;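 also: 0% = protein plus DNA without compound and 100% = DNA alone without protein; higher means less MgrA bound to DNA so lower polarization; one replicate is shown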
An asterisk follows results filed as active; / = no result given. The list is partial (hit frequency here may not be typical).

Every second line gives: MgrA DNA FP	Sa helicase inh
O=C1NC2C3CC4CC(C3)CC2(C4)O1 (stereo not drawn)
    /	1
Cc1oc2ncn(CC(C)C)c(=O)c2c1C(=O)NCC1CCN(Cc2ccc(F)cc2)CC1
    /	-21
Cc1ccc(C(=O)C#Cc2ccccc2)cc1
    -0.8	/
CSc1nnc(-c2ccc(NC(=S)N3CCCCC3)cc2)o1
    2.8	/
O=C(Nc1ccc2nc3n(c(=O)c2c1)CCCC3)c1cccc(F)c1
    /	21
N#CC(C#N)=C1CCCCCN1
    -0.7	13
NC(N)=NS(=O)(=O)c1ccc(N=Cc2ccccc2O)cc1
    3.0	4
Cc1ccc(NC(=O)Cn2ccsc2=N)c(Br)c1
    /	20
Cc1nc(Nc2nc3ccccc3o2)nc(-c2ccc(Cl)cc2)c1C#N
    -0.7	5
COC(=O)C1=CN(C2CC2)C=C(C(=O)OC)C1c1ccc(O)cc1
    /	-18
Cc1cc(C)nc(SCc2n[nH]c(=S)o2)n1
    /	5
CC1=C(C(=O)OC(C)C(C)(C)C)C(c2cccc(Br)c2)NC(=O)N1 (stereo not drawn)
    2.4	10
Cc1ccnc(NS(=O)(=O)c2ccc(NC(=O)c3sc4ccccc4c3Cl)cc2)n1
    0.4	/
O=C(O)CCc1nc2ccccc2c(=O)[nH]1
    -3.9	-16
Cc1cccc(OCc2nnc(SCC(=O)c3ccc4c(c3)NC(=O)CO4)o2)c1
    /	13
Cc1cccc(NC(=S)NCc2cccnc2)c1
    -1.8	/
CCOC(=O)n1nc(Cc2ccncc2)c2ccccc2c1=O
    /	12
O=C(COC(=O)C1CC(=O)N(Cc2ccco2)C1)c1ccc(OC(=O)c2ccco2)cc1 (stereo not drawn)
    -1.5	15
COC(=O)c1sccc1NC(=O)CC(=O)C(F)(F)F
    /	8
O=C(NC1=NCCCCC1)c1ccccc1
    -2.5	-15
Cc1cc(C)nc(SCc2cn3c(C)csc3n2)n1
    /	-21
COC(=O)c1ccc(-n2c(C)cc(C(=O)CSc3ncnc4sc5c(c34)CCC5)c2C)cc1
    2.1	7
NS(=O)(=O)c1ccc(CCNC2=CC(=O)CC(c3ccco3)C2)cc1 (stereo not drawn)
    3.5	14
CC(=O)NC(=O)CCSc1ccccc1C(=O)NC(C)=O
    /	6
O=C(CS(=O)(=O)Cc1ccccc1)Nc1ccc2c(c1)OCCO2
    -4.0	-1
Cc1nnc(COC(=O)c2cccc(S(=O)(=O)N3CCCCC3C)c2)o1 (stereo not drawn)
    /	-2
COc1ccc(Cl)cc1NC1=NC2CS(=O)(=O)CC2S1 (stereo not drawn)
    5.0	-8
CCc1ccc(NC(=O)c2cc(S(=O)(=O)N3CCCC3)c[nH]2)cc1
    1.8	8
CC(NS(=O)(=O)c1ccc(C(C)(C)C)cc1)c1ccccc1 (stereo not drawn)
    -1.1	2
CC(C)(C)P(=NC(=O)C(F)(F)F)(N1CCCCC1)N1CCCCC1
    /	-7

The last 2 records of the part before are carried over, then new ones follow:
Every second line gives: MgrA DNA FP	Sa helicase inh
CC(NS(=O)(=O)c1ccc(C(C)(C)C)cc1)c1ccccc1 (stereo not drawn)
    -1.1	2
CC(C)(C)P(=NC(=O)C(F)(F)F)(N1CCCCC1)N1CCCCC1
    /	-7
O=C(NC(=S)NC12CC3CC(CC(C3)C1)C2)c1ccco1
    4.3	14
Nc1ccccc1C1C=NNC1=O (stereo not drawn)
    -4.0	/
CC1=C(C(=O)OC2CCCC2)C(c2cccc(Cl)c2)CC(=O)N1 (stereo not drawn)
    1.1	6
COc1ccc(-c2nc(CN3CCC(C(=O)NC4CCN(Cc5ccccc5)CC4)CC3)c(C)o2)cc1OC
    /	27
COc1ccc(CCN2C(=O)C(C)SC2c2cccnc2)cc1 (stereo not drawn)
    -1.9	/
CC(C)(CSc1ncccn1)NS(=O)(=O)c1ccccc1
    1.4	14
COc1cc2ncnc(Nc3ccc(OC(F)(F)F)cc3)c2cc1OC
    -2.0	/
CCOc1ccc(OCC)c(S(=O)(=O)n2cccn2)c1
    -3.0	7
O=C(c1ccc(Cl)cc1Cl)N1CCSCC1
    -1.2	/
COc1cccc(C(=O)C(C#N)=C(SC)SC)c1
    4.2	/
CCOC(=O)c1c(CSCCN(CC)CC)oc2ccc(OC)cc12
    /	31
O=C(Cc1cccc2ccccc12)Nc1ccc(N2CCOCC2)c(Cl)c1
    -1.1	-2
O=C1OCCC1Sc1nc(C2CCCCC2)n(-c2ccccc2)n1 (stereo not drawn)
    /	-4
Cc1ccccc1-n1c2c(c(=O)[nH]c1=S)CN(Cc1ccco1)CN2
    /	34
O=C(O)CN1C(=O)/C(=C\c2ccc(-c3cccc4c3C(=O)c3ccccc3C4=O)o2)SC1=S
    0.0	/
O=S(=O)(CCSc1ccccn1)c1nc2ccccc2s1
    /	2
Cc1c(C(=O)OCC(=O)Nc2ccc(C#N)cc2)oc2ccccc12
    /	32
CC(=O)N/C(=C/c1ccc(C)c(C)c1)C(=O)O
    -4.0	/
O=CN/N=C/c1cn(-c2cccs2)nc1-c1ccccc1
    /	16
COC(=O)CSc1ncnc2sc3c(c12)CCCC3
    0.9	/
CCOC(=O)COc1nc(-c2ccco2)cc(-c2ccco2)c1C#N
    /	2
CCOC(=O)N1CCc2c(sc(NC(=O)/C=C/c3ccccc3)c2C#N)C1
    /	-19
COc1ccc(OCC(O)CNS(=O)(=O)c2ccc(C)cc2)cc1 (stereo not drawn)
    /	12
CCOc1ccc(NC(=O)N(CCc2ccncc2)C(C)C)cc1
    -0.9	-1
CC1(C)C(=O)NCCN1C(=O)CCC(=O)O
    15	-1
COc1ccc(N2C(=O)CSC23C(=O)N(CN2CCCC(C)C2)c2ccccc23)cc1 (stereo not drawn)
    /	-21
CCNc1c(NS(=O)(=O)c2ccc(F)cc2)c(=O)oc2ccccc12
    /	-12
O=C(O)C=C1C2CC3CC(C2)CC1C3
    0.8	4
CC(=O)N1CCN(c2nc(-c3ccccc3)c3cc(Br)ccc3n2)CC1
    -1.3	/
O=S(=O)(Cc1ccc(Cl)cc1)c1nc2ccccc2[nH]1
    0.2	8

No new results follow: seven of the compounds above.
Every second line gives: MgrA DNA FP	Sa helicase inh
CCOc1ccc(NC(=O)N(CCc2ccncc2)C(C)C)cc1
    -0.9	-1
CC1(C)C(=O)NCCN1C(=O)CCC(=O)O
    15	-1
COc1ccc(N2C(=O)CSC23C(=O)N(CN2CCCC(C)C2)c2ccccc23)cc1 (stereo not drawn)
    /	-21
CCNc1c(NS(=O)(=O)c2ccc(F)cc2)c(=O)oc2ccccc12
    /	-12
O=C(O)C=C1C2CC3CC(C2)CC1C3
    0.8	4
CC(=O)N1CCN(c2nc(-c3ccccc3)c3cc(Br)ccc3n2)CC1
    -1.3	/
O=S(=O)(Cc1ccc(Cl)cc1)c1nc2ccccc2[nH]1
    0.2	8

Next records
Every second line gives: MgrA DNA FP	Sa helicase inh
COc1cc(NC(=O)c2cc3ccccc3cc2OCC(=O)NC(C)(C)C)c(OC)cc1Cl
    2.9	19
O=C(NCCN1CCOCC1)c1ccc(-c2ccccc2)cc1
    -1.9	7
CCS(=O)(=O)c1ccc(O)c(-n2c(=S)[nH]c3ccccc3c2=O)c1
    /	9
N#Cc1ncc(C(F)(F)F)cc1S(=O)(=O)c1ccc(Cl)cc1
    -0.6	/
COc1ccccc1Nc1nc2nonc2nc1Nc1ccc(Cl)cc1
    4.7	/
CC(C)Nc1cc(-c2ccccc2)nc2nncn12
    0.2	5
CCOC(=O)c1s/c(=N/N=C(C)C)n(C)c1C
    /	7
Cc1ccc2c(n1)CC(C)(C)C/C2=N/O
    /	5
O/N=c1\cc(-c2ccc3c(c2)OCCO3)oc2ccccc12
    /	-10
CC(C)n1c2ccccc2c2nnc(SCc3ccc4nonc4c3)nc21
    /	14
c1ccc(Nc2ncn[nH]2)cc1
    2.0	/
CNC(=O)/C(=C\C=C\c1ccccc1)NC(=O)c1ccccc1
    -0.9	22
Cc1nn(-c2ccccc2)cc1/C=C1/CN(C)C/C(=C/c2cn(-c3ccccc3)nc2C)C1=O
    /	5
CC(C)/C=C1\CCCCC1O (stereo not drawn)
    -0.8	-12
C=CCN(CC=C)C(=O)c1csc(Nc2ccc(C)cc2)n1
    -3.2	16
CN1CCN(CCCNC(=O)CSc2c3c(nc4ccc(Cl)cc24)CCCC3)CC1
    /	10
COc1ccccc1C(=O)Nc1sccc1C#N
    /	-22
COC(=O)C(C)Sc1ccc2nnc(-c3cccnc3)n2n1 (stereo not drawn)
    /	-21
COC(=O)c1ccccc1S1=NS(=O)(=O)c2ccccc21 (stereo not drawn)
    -2.6	/
O=C(OCC(=O)N1CCCC1=O)c1ccc2ccccc2n1
    /	8
CC(C)(C)C(=O)Nc1c(Br)c(C2CC2)nn1-c1ccccc1
    /	-13
O=C(CC1CCCC1)OCc1cccs1
    0.6	-12
O=C(CCC1CCCC1)OCc1nnc(-c2ccccc2Br)o1
    /	-9
CN(C)C1CCCCC1NS(=O)(=O)c1ccccc1 (stereo not drawn)
    -0.3	6
Cc1ccc(C)c(-n2nnnc2SCC(=O)N2CCCCC2C(N)=O)c1 (stereo not drawn)
    /	-6
CCOc1ccc(-c2csc(NC(=O)CC)n2)cc1
    -0.6	7
OC(c1ccc(Cl)cc1)C(O)c1nc2ccccc2[nH]1 (stereo not drawn)
    /	11
CCc1ccc(C2NC(=O)c3c(sc4c3CCN(C)C4)N2)cc1 (stereo not drawn)
    2.5	-13
CCOC(=O)CNc1nc(Cl)nc(Nc2ccc(C)cc2)n1
    -0.5	/
COc1ccc(S(=O)(=O)c2cn(CC(=O)Nc3cccc(OC)c3)c3nc(C)ccc3c2=O)cc1
    /	5
COc1cccc(Cn2cc(NC(=O)Nc3ccc(F)cc3F)cn2)c1
    -1.2	8
c1ccc2sc(C3CCCN3Cn3nnc4ccccc43)nc2c1 (stereo not drawn)
    /	-9
Cc1c(C(=O)N=c2sc3ccccc3n2C)sc2nc3n(c(=O)c12)CCC3
    /	-1
O=C(CN1CCC(NC(=O)NC2CCCCC2)CC1)Nc1cccc(I)c1
    3.0	-17
O=S(=O)(NCc1ccncc1)c1ccccc1
    -6.8	6
Cc1noc(C)c1COc1ccc(C(=O)N2CCOCC2)cc1
    /	3
C=CCN1C(=O)CSC1=Nc1ccc(C(=O)O)cc1
    -2.3	5
CC(=O)O[C@]1(C(C)=O)CCC2C3CCC4=CC(=O)CCC4(C)C3(F)C(O)CC21C (stereo partly drawn)
    -2.8	/
O=C(O)CN1C(=O)/C(=C2\SC(=Nc3ccc(Br)cc3)NC2=O)c2ccccc21
    /	10
COc1ccc(C(=O)NCc2nc3ccccc3n2CC(C)C)cc1OC
    /	-22
CC(=O)Nc1ccc2c(c1)nc(C)n2Cc1ccccc1
    /	14
O=C(/C=C/c1ccccc1)Nc1ccc(Oc2ccc(F)cc2)nc1
    -1.2	/
CCOC(=O)c1c(-n2c(C)ccc2C)sc2c1CCCC2
    -0.3	/
N#CC(C#N)=C(N)Nc1cccc(Cl)c1
    /	-19
Cc1cc(NS(=O)(=O)c2ccc(NC(=O)CSc3nnc(-c4ccccn4)n3Cc3ccco3)cc2)nc(C)n1
    -0.3	9
CCC(=O)c1c(C)nc2n(Cc3ccccc3)c3ccccc3n12
    -2.5	3
COc1ccc(-c2noc(CNC(=O)CC(c3ccccc3)c3ccccc3)n2)cc1
    /	10
O=C1CCN(Cc2ccccc2)C(=S)N1
    0.3	18
CN1C(=O)c2ccc(-c3nc4ccc(Cl)cc4c(=O)o3)cc2C1=O
    2.8	0
Fc1cccc(Cl)c1CN1CCN(CCCNc2ncnc3scc(-c4ccccc4)c23)CC1
    -0.5	/
Cc1ccc(NC(=S)NC(=O)C23CC4CCC(CC(C4)C2)C3)cc1
    3.8	7
O=C(NC(=S)Nc1ccncc1)c1ccccc1
    -1.1	/
CCC(C)NC(=O)C1CCN(S(=O)(=O)c2ccc3c(c2)CCCC(=O)N3)CC1 (stereo not drawn)
    /	5
Cc1c(N2C(=O)/C(=C3/C(=O)N(CC(=O)O)c4ccccc43)SC2=S)c(=O)n(-c2ccccc2)n1C
    5.0	/
O=C(/C=C/c1ccc2c(c1)OCO2)OCc1ccccc1
    -2.1	-7
COC(=O)/C=C1\SC(NC(C)=O)=NC1=O
    /	-19
Cc1c(Sc2ccc(Cl)cc2)c(=O)[nH]c2cc3c(cc12)OCO3
    1.7	6
CCCn1c(=O)c(Br)cn(-c2ccccc2C)c1=O
    /	-11
O=C(CCC(=O)N1CCOc2ccccc21)NCc1ccco1
    0.9	-12
COC12CCCC(C(=O)O)(CCC1)C2
    -2.6	0

Remaining list, next part:
Every second line gives: MgrA DNA FP	Sa helicase inh
O=C1CC(N2CCCC2)C(=O)N1c1ccccc1 (stereo not drawn)
    -0.9	12
Cc1ccccc1CNCc1ccco1
    -1.4	-3
O=C(/C=C/c1ccco1)/C=C/c1ccco1
    98*	31
NNc1ncnc2sccc12
    /	5
CN(C1CCCCC1)S(=O)(=O)c1ccc(-c2ccccn2)s1
    -1.5	/
O=S(=O)(Nc1cc(C(F)(F)F)ccc1N1CCc2ccccc2C1)c1cccc2nonc12
    /	-5
CCN1CCN(c2ccc(NC(=O)c3ccc(C)cc3)cc2)CC1
    -2.0	/
Cc1occc1C(=O)N1CCN(c2ccc(Cl)c(Cl)c2)CC1
    6.2	25
Cc1cc(C(F)(F)F)cc(-n2cc(C#N)c(N)n2)n1
    -0.5	/
CCN(Cc1ccncc1)Cn1c(=S)oc2ccccc21
    /	10
COc1ccc(OCc2cccc(C(=O)O)c2)cc1
    /	32
CC(C)Cn1c(=O)c(C2=NS(=O)(=O)c3ccccc3N2)c(O)c2ccccc21
    3.2	12
Nc1cccc2c1C(=O)N(c1ccc(Cl)c(Cl)c1)C2=O
    /	-15
